High-throughput results deposited in PubChem by several laboratories.
PrP 5UTR inh: inhibition of PrP 5' UTR reporter expression | cell-based PrP 5' UTR mRNA reporter, plate reader | inhibition, % (concentration not given with the values) | 340,000 compounds, 0.35% hits | AID 488862;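 active means every replicate at 50% or more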;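 further: 0 = median of the neutral control wells; tested in H4 reporter cells; numbers are from one replicate; inactives centre near -14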
RN4220 kill: S. aureus RN4220 growth inhibition; inhibition, % (no concentration beside the values); OD600, 16 h; 330,000 compounds, 0.33% hits;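 active means z-score of -3 or lower and OD600 up to 0.18 on both plates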;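 further: plate controls were untreated cells for no effect and reference antibiotic for full effect; stock transfer was 100 nL into about 80 µL; one replicate is shown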
Mtb hypoxia inh: reduces hypoxia-regulated biosensor signal in M. tuberculosis. M. tuberculosis hypoxia-regulated fluorescent reporter, fluorescence. fluorescence inhibition, % (test concentration not listed). 300,000 compounds, 0.1% hits. AID 1159583;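 active means 35 to 45% if threefold the growth effect, above 45% if 1.5-fold the growth effect; inactive means the rest, general growth blockers included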;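 further: wells of about 50 µL received 100 nL stock; 0% = vehicle wells and 100% = reference inhibitor wells; whole bacteria with a GFP reporter of the hypoxia response; strong numbers were not always called active; many hits fall short of the cut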
ugtP null kill: kills S. aureus RN4220 lacking UgtP; S. aureus RN4220 ugtP deletion, OD600 growth, 16 h; some inactives read as strong as hits; AID 1259309; 330,000 compounds, 0.54% hits; growth inhibition, % (no concentration beside the values);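 active means z-score under -3 and OD600 up to 0.15 on both plates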;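 further: plate controls were untreated wells for no effect and antibiotic for full effect; wells of about 80 µL received 100 nL stock; the first replicate is given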
BJeLR lethal: kills HRASV12-expressing BJeLR cells; BJeLR (HRASV12) viability, CellTiter-Glo ATP luminescence, 48 h; reference of the scale not given here; inhibition, % (test concentration not listed); AID 1554; 300,000 compounds, 0.17% hits;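 active means replicate mean above 50%; inconclusive means above 50% but judged a plate artefact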;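 further: 50 nL library stock added to about 25 µL; numbers are from one replicate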
Bead autofluor: flagged as autofluorescent in microsphere protease counterscreen. compound autofluorescence counterscreen, microsphere flow cytometry; active compounds read high. fluorescence intensity (no concentration beside the values). 360,000 compounds, 3.1% hits. AID 624483;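 active means at least 3 SD above the mean of all compounds, about 16000 in these data; inconclusive means too few beads counted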;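 further: 100 nL of 1 mM stock went into each well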
Mtb hypoxia inh growth: also measured in Mtb hypoxia inh; calls as there; growth inhibition, %; measured here: M. tuberculosis growth (absorbance);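 0% = vehicle and 100% = reference antibiotic; read after six days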
Numbers without * were called inactive; ? = inconclusive; nt = no result given; & = joins results of further samples.

SMILES,ugtP null kill,PrP 5UTR inh,RN4220 kill,Mtb hypoxia inh,BJeLR lethal,Mtb hypoxia inh growth,Bead autofluor
CN(C)CCNC(=O)c1c(CSc2ccccc2)noc1C(=O)NCc1ccccc1,1,-7,7.9,-2,5,5,4342
COc1ccc(OC)c(NC(=S)N2CCN(Cc3ccccc3)CC2)c1,1,-16,1.2,-1,4,6,1911
CCCNC(=O)c1cc(-c2ccc(OC)cc2)on1,-3,-32,-0.6,9,-15,3,16440*
COc1cc(/C=C2\C(=O)ON=C2c2ccccc2)cc(Cl)c1O,2,-14,0.8,-2,-7,6,4869
Cc1cc(C)nc(SCC(=O)NN=C2CCCC2)n1,-3,-15,3.6,0,0,14,4757
Cc1nnc(Sc2nc3c(c(=O)n(C)c(=O)n3C)n2Cc2ccccc2Cl)s1,12,-17,6.7,7,-6,6,3374
NS(=O)(=O)c1ccc(CCNC(=O)C2CCCN(S(=O)(=O)c3cccnc3)C2)cc1 (stereo not drawn),3,-12,2.7,nt,nt,nt,5464
C=CCNC(=O)C(=O)NCC(c1ccc2c(c1)OCO2)N1CCOCC1 (stereo not drawn),5,-9,4.0,0,-4,6,5773
O=C1CC(N2CCN(c3ccccn3)CC2)C(=O)N1c1ccc(F)cc1 (stereo not drawn),0,-22,1.2,-1,-2,0,3392
CC1(C)NC(=O)N(CC(=O)OCC(=O)Nc2cc(S(=O)(=O)N3CCCCCC3)ccc2Cl)C1=O,-3,-12,2.7,5,1,2,2564
COC(=O)c1ccc(CN2C(=O)c3ccccc3C2=O)cc1,9,-22,4.4,16,0,4,3930
CCC(Oc1ccccc1)C(=O)Nc1ccccc1C(=O)N1CCN(C)CC1 (stereo not drawn),2,-21,-0.2,17,3,12,5638
CCc1ccc(NS(=O)(=O)c2c(C)nc3sc(CC)nn3c2=O)cc1,3,2,3.0,2,nt,4,5463
CCC(=O)NNc1nc2c(C)c(C)ccc2s1,0,-25,0.6,10,nt,4,4375
CCOP(=O)(OCC)C(Nc1cc(Cl)cc(Cl)c1)c1cccc(O)c1 (stereo not drawn),-21,-20,5.2,4,-11,2,2575
Nc1ccc(S(=O)(=O)Nc2cc(Cl)c(N)c(Cl)c2)cc1,2,-4,5.2,11,nt,10,3838
COc1ccc(C2c3[nH]c4ccccc4c3CCN2C(=O)c2cc3ncccn3n2)c(F)c1 (stereo not drawn),2,2,6.2,8,-4,3,4560
COc1ccc(C=NNc2cc(N(C)C)nc(N(C)C)n2)cc1,-4,nt,4.3,-20,nt,-10,nt
C[C@@]12CCC3[C@@](CCC4[C@@]3(C)CCC[C@@]4(C)C(=O)NC3CCCCC3)(CC1=O)C2 (stereo partly drawn),4,-21,5.7,9,nt,6,3999
CCCCOC(=O)c1ccc(-c2ccc(/C=N/NC(=S)NCC)o2)cc1,nt,-13,nt,nt,17,nt,16266*
CC(=O)c1cccc(N=Cc2c(O)ccc3ccccc23)c1,18,-19,3.4,-4,-27,4,3944
COc1ccccc1N(C)S(=O)(=O)c1ccc(C(=O)OCC(=O)c2c[nH]c3ccccc23)cc1,-3,-14,0.0,8,4,3,2728
COc1ccc(Oc2cc(C)c3ccccc3n2)cc1,23,-20,4.4,nt,4,nt,2034
Cc1cnc(CN2CCc3c([nH]c4ccccc34)C2C2CCCCC2)[nH]1 (stereo not drawn),-8,-13,3.5,6,9,-5,4502
O=C1c2ccccc2C(=O)N1CCCc1nc2ccccc2c(=O)n1Cc1ccco1,-1,-7,0.3,nt,5,nt,4521
CNC(=S)NN=Cc1cc(C)n(-c2ccc(Cl)c(Cl)c2)c1C,-19,nt,3.8,7,nt,15,nt
COc1ccc(OC)c(CN2CCN(C(=O)CNC(=O)c3ccccc3F)CC2)c1,8,-21,0.5,16,nt,14,3333
CCN(CC(=O)NCc1ccc(F)cc1)C(=O)COc1ccc(C)c(C)c1,0,-15,1.8,-4,-7,2,9226
CCOC(=O)C1CCN(C(=O)CCNC(=O)c2ccccc2OC)CC1,9,5,0.4,9,-10,-2,5811
C=CCOc1ccc(C2=NO[C@@H]3[C@@H]4C[C@@H]([C@H]5C(=O)N(C)C(=O)[C@@H]45)[C@H]23)cc1,13,nt,5.2,9,-2,5,5401
Cc1ccc(NC(=O)COC(=O)c2ccc3c(c2)OCO3)c(C)c1,3,nt,2.5,14,-5,-4,3393
O=C(CCNC(=O)Cn1ccc2ccccc2c1=O)NCCN1CCN(c2cccc(Cl)c2)CC1,4,-14,0.9,nt,9,nt,nt
NC(=O)NC1NC(=O)NC1=O (stereo not drawn),-1,-24,-0.4,nt,-4,nt,5653
Cc1cc(C)nc(N2CCC(C(=O)NNC(=O)c3ccccc3)CC2)n1,3,-18,0.5,2,3,-3,6175
CCOc1cc2c(C#N)c(N3CCCCC3)nc(N)c2c(N)n1,-8,nt,2.4,7,-18,2,8838
CCn1c(SCC(=O)NCc2ccccc2)nnc1-c1ccccc1O,10,-1,4.1,11,-12,8,5793
CCCCCCC1CCC(c2nc(-c3ccncc3)no2)CC1 (stereo not drawn),35,-48,1.5,0,-2,0,9094
CCN(CC)CCn1cnc2c1c(=O)n(CCOC(=O)c1cc(OC)c(OC)c(OC)c1)c(=O)n2C,4,-12,0.4,3,4,2,3873
CCN(CC)c1ccc(N=C2C(=O)Nc3ccccc32)cc1,nt,-12,nt,nt,-14,nt,3141
CC(/C=C1\SC(=O)N(CC(=O)Nc2ccc(O)cc2)C1=O)=C\c1ccccc1,nt,-27,nt,nt,9,nt,11794
CCOCCCNC(=O)/C(C#N)=C/c1ccc(C(=O)OC)cc1,0,-27,1.2,0,8,-1,3996
CCc1ccccc1NC(=O)C(CC)Sc1nc2cc3c(cc2c(=O)n1Cc1ccco1)OCO3 (stereo not drawn),21,-1,9.2,-5,-11,-10,4412
CCC12CCCN3CCC4(C(=C(C(=O)OC)C1)Nc1ccccc14)C32 (stereo not drawn),5,-9,2.6,nt,-4,nt,2576
CCn1c(SCC(=O)Nc2ccc(OC)cc2OC)nc2nc3c(cc2c1=O)COC(C)(C)C3,6,-12,3.1,5,-10,7,3028
Cn1cnc2cc(NC(=O)c3ccc(Cl)cc3)ccc21,10,-44,4.6,-4,-13,4,6097
COC(=O)C(C)Sc1snnc1-c1ccccc1 (stereo not drawn),-1,-18,3.2,-6,-2,-2,3197
COc1ccc(C(=O)COC(=O)c2ccccc2NS(=O)(=O)c2ccc(O)c([N+](=O)[O-])c2)cc1,19,-11,30,16,1,4,4049
COc1cc(C=NNC(=O)C(=O)NCc2cccnc2)cc(OC)c1OC,10,nt,2.9,11,nt,2,nt
COc1ccccc1CNC(=O)COC(=O)Cc1c[nH]c2ccccc12,3,-10,1.3,2,-4,-2,nt
CC(C)Cc1cc(C(=O)Nc2cc(C(F)(F)F)ccc2Cl)no1,61,-13,3.9,6,-3,6,8826
CCCNc1nc(N2CCCC2)nc(N2CCCC2)n1,14,-11,5.7,-7,-2,7,4912
O=C(Cn1nc(-c2ccccc2)c2ccccc2c1=O)NCCN1CCOCC1,7,-9,1.1,nt,1,nt,3242
CCCCNc1c(-c2ccc(SC3CCCCC3)cc2)nc2ccccn12,4,-106,-1.9,4,-1,4,3189&5810
O=C1NCC(c2ccccc2)C1C(=O)N/N=C\c1ccc(-c2cccc(Cl)c2Cl)o1 (stereo not drawn),nt,-9,nt,nt,-2,nt,2717
O=C(CNC(=O)COc1ccccc1)NCc1cccnc1,1,-22,2.4,-4,-3,8,5327
COC(=O)c1ccc(COC(=O)CNC(=O)CNC(=O)c2ccc(C)cc2)cc1,6,-30,0.4,5,4,9,4139

(next part)
SMILES,ugtP null kill,PrP 5UTR inh,RN4220 kill,Mtb hypoxia inh,BJeLR lethal,Mtb hypoxia inh growth,Bead autofluor
Oc1ccccc1CNc1ccc(Br)cn1,-17,-120,-21,14,6,11,3532
O=S(=O)(c1cccc2nsnc12)N1CCN(c2ncccn2)CC1,-4,-24,5.7,nt,6,nt,5003
CC(C)(C)NC(=O)c1ccc(COc2ccccc2Br)o1,6,-20,-11,19,-5,14,2884
CC1=C(C/C=C(\C)CCC[C@H](C)CCC[C@H](C)CCCC(C)C)C(=O)c2ccccc2C1=O,-3,nt,2.7,nt,4,nt,5290
CSc1ccc(-c2nc(O)c3cnccn23)cc1,-6,-19,1.4,-2,1,11,2280
COc1ccc(NC(=O)c2ccc(NCC3CCCO3)c([N+](=O)[O-])c2)cc1 (stereo not drawn),9,-12,5.1,13,-4,6,3407
CCOc1cc(C=NNc2ccc([N+](=O)[O-])cc2)ccc1OCC(=O)Nc1ccc(C)c(C)c1,-26,nt,-27,-1,nt,2,nt
O=C(Cc1cn2ccsc2n1)Nc1ccccc1Oc1ccccc1,-9,-46,-2.0,0,2,14,2673
Nn1c(SCC(=O)Nc2ccc(OC(F)F)cc2)nnc(Cc2ccccc2)c1=O,6,-17,-5.2,-1,5,0,5467
COc1cc(C=NNC(=O)c2ccc(CSc3nc4ccccc4[nH]3)cc2)ccc1O,6,nt,16,0,nt,1,nt
O=C(OC1CCOC1=O)c1cccc(S(=O)(=O)Nc2ccc(F)cc2)c1 (stereo not drawn),12,-21,2.5,8,-11,10,8065
Cc1nn(C)c(C)c1S(=O)(=O)Nc1ccc2c(c1)OCO2,-2,-21,-3.1,nt,3,nt,4562
O=C(O)/C(=C\c1ccc(Br)cc1)c1ccc(S(=O)(=O)N2CCCCC2)s1,-6,-24,12,8,6,-2,2620
COC(=O)Cc1cc(=O)oc2c(C)c(O)ccc12,3,-7,6.8,-5,15,-1,19182*
O=C(CN1CCN(C2CCCCC2)CC1)Nc1cccc2ccccc12,1,12,13,1,-2,4,4939
COc1ccc(-c2cc(C(=O)NC(Cc3c[nH]c4ccccc34)C(=O)O)c(C)o2)cc1OC (stereo not drawn),3,-15,3.5,-2,-12,3,2488
CSc1nc2nc3c(cc2c(=O)n1-c1ccccc1C)CCCC3,5,-24,3.1,3,9,-4,5703
O=C(NC1CCCCC1)C1CCC(CNS(=O)(=O)c2cccc3nsnc23)CC1 (stereo not drawn),6,-6,1.9,2,-4,2,5624
COC(=O)COn1c(SCC(=O)OC)nc2ccccc2c1=O,14,-7,7.1,4,-5,-3,3508
COc1cc(CNCc2ccccn2)ccc1OCc1c(Cl)cccc1Cl,-12,-9,7.2,11,6,10,8711
CCNc1nc(NCC)n2c(SCC(=O)Nc3c(C)cccc3C)nnc2n1,0,-9,1.4,12,-6,6,?
Cn1nc(C(=O)OCC(=O)Nc2ccc(F)cc2Cl)c2ccccc2c1=O,7,-21,5.3,4,nt,3,3688
O=C(OCc1csc(-c2ccccc2)n1)c1ccccc1O,17,-45,11,10,0,3,4405
Fc1ccccc1COc1ccc2ccccc2c1CNc1nn[nH]n1,2,-30,7.0,4,-7,5,2093
COc1ccc2c(c1)nc(SCC(=O)C(C)(C)C)n2C,-1,-39,2.3,11,-5,10,8850
Cc1cccc(NC(=O)CSc2nc3nc(C)cc(C)c3c(=O)[nH]2)c1,5,-30,4.7,8,-8,14,5577
O=C1/C(=C/c2cccc([N+](=O)[O-])c2)CSc2ccc(Cl)cc21,7,-14,3.8,-2,-3,-3,3778
O=c1c2ccccc2nc(-c2ccccc2)n1-c1ccccn1,2,-23,-1.6,-7,-6,-6,4766
COc1ccc(CNC(=O)CSc2cccc3cccnc23)cc1,9,-25,2.3,17,-1,7,4021
COc1ccc(CCN(C)C(=O)c2ccc(S(=O)(=O)Nc3ccccc3C)cc2)cc1OC,0,nt,6.5,4,4,-1,nt

Three structures already listed, ordered by SMILES length, smallest number first.
SMILES,ugtP null kill,PrP 5UTR inh,RN4220 kill,Mtb hypoxia inh,BJeLR lethal,Mtb hypoxia inh growth,Bead autofluor
CCCCCCC1CCC(c2nc(-c3ccncc3)no2)CC1 (stereo not drawn),35,-48,1.5,0,-2,0,9094
CCN(CC(=O)NCc1ccc(F)cc1)C(=O)COc1ccc(C)c(C)c1,0,-15,1.8,-4,-7,2,9226
O=C1c2ccccc2C(=O)N1CCCc1nc2ccccc2c(=O)n1Cc1ccco1,-1,-7,0.3,nt,5,nt,4521
